Screening results deposited in PubChem BioAssay by several laboratories.
Calb FLC = C. albicans growth modulation with fluconazole; 300,000 tested, 0.57% active; C. albicans CaCi-2 (fluconazole-resistant clinical isolate) + fluconazole, Alamar Blue growth, 48 h; AID 1979; growth inhibition, % (concentration not given with the values);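 active means most replicates above 75%; inconclusive means exactly half above 75%; inactive means most below 75%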;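 further: all wells also contain fluconazole at 8 µg/ml as a sub-toxic cotreatment; 0% = median of DMSO wells and 100% = median of geldanamycin control wells; wells of about 8 µL received 7.5 nL stock; the first replicate is given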
ALR H2O2 inh = blocks human ALR sulfhydryl oxidase activity. P55789. purified ALR, DTT oxidation, H2O2 HRP-luminol luminescence. inhibition, % (test concentration not listed). 290,000 tested, 3.8% active;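 active means mean and each replicate at 75% or more; inconclusive means only one of the two met; inactive means neither met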;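 further: stock transfer was 7.5 nL into about 7.5 µL; 0% = neutral wells and 100% = wells with inactivated enzyme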
T cruzi repl = T. cruzi replication inhibition; T. cruzi beta-gal in NIH3T3, luminescence, 90 h; inhibition, % (test concentration not listed); 300,000 tested, 1.4% active; AID 1885;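 active means mean inhibition across valid replicates above about 55%, limit read from the data; inconclusive means mean below that limit but half or more replicates reach it; inactive means mean below it, under half of replicates reach it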;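 further: signal also drops with host cell toxicity which is not excluded here; 0% = plate median of DMSO wells and 100% = zero luminescence signal; higher percent means less beta-gal luminescence so fewer parasites; stock transfer was 50 nL into about 50 µL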
Beta2AR agonist = activates human beta-2 adrenergic receptor causing internalization; Am2.2-beta2AR cells, FAP receptor internalization, flow cytometry; reference of the scale not given here; 340,000 tested, 0.43% active; response, % (concentration not given with the values); P07550;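 active means response above a set limit, near 3 SD of response in nonfluorescent compounds, cut at about 42% in these data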;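 further: stock transfer was 100 nL into about 11 µL; a reference agonist was the positive control; negative values mostly stem from fluorescent compounds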
A1 inh = inhibitors of the anti-apoptotic protein A1, read as caspase activation; caspase activation, % (concentration not given with the values); 330,000 tested, 0.066% active; MEF A1-2A-BIM cells, Caspase-Glo 3/7 luminescence, 3 h; percent of clofoctol response, vehicle zero;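 active means over half of replicate activation scores above 10%, or exactly half above 10 with the replicate mean above 10; inconclusive means replicate mean below 10 yet half the replicates above 10; inactive means over half of replicates below 10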;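 further: wells of about 30 µL received 50 nL stock; many hits fall short of the cut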
Ecoli rRNA inh = selective bacterial rRNA inhibition in E. coli; E. coli WT GFP vs humanized-ribosome RFP mutants, fluorescence, 24 h; stronger effect = lower value; DMSO median 0, no signal -100; GFP signal change (wild-type ribosome), % (test concentration not listed); 350,000 tested, 1.6% active;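 active means significant combined selectivity score with lowered wild-type GFP, culture density cut under 30%, mutant RFP and density less affected; inactive means any of these conditions unmet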; further: one replicate is shown; some compounds called inactive have numbers as strong as hits
LANA-H2B inh = blocks KSHV LANA binding to histone H2A/H2B; Q9QR71; cell-free LANA-H2A/H2B peptide, fluorescence polarization; inhibition, % (test concentration not listed); 320,000 tested, 0.6% active; in the data active means inhibition mostly above about 10%, no sharp cut-off; inactive means mostly below about 6.7%;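 further: stock transfer was 7.5 nL into about 10 µL; 0% = median of vehicle wells and 100% = median of positive control wells; one replicate is shown; the record names a cut of 25% in any replicate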
Target sequence (Q9QR71 whole entry, looked up): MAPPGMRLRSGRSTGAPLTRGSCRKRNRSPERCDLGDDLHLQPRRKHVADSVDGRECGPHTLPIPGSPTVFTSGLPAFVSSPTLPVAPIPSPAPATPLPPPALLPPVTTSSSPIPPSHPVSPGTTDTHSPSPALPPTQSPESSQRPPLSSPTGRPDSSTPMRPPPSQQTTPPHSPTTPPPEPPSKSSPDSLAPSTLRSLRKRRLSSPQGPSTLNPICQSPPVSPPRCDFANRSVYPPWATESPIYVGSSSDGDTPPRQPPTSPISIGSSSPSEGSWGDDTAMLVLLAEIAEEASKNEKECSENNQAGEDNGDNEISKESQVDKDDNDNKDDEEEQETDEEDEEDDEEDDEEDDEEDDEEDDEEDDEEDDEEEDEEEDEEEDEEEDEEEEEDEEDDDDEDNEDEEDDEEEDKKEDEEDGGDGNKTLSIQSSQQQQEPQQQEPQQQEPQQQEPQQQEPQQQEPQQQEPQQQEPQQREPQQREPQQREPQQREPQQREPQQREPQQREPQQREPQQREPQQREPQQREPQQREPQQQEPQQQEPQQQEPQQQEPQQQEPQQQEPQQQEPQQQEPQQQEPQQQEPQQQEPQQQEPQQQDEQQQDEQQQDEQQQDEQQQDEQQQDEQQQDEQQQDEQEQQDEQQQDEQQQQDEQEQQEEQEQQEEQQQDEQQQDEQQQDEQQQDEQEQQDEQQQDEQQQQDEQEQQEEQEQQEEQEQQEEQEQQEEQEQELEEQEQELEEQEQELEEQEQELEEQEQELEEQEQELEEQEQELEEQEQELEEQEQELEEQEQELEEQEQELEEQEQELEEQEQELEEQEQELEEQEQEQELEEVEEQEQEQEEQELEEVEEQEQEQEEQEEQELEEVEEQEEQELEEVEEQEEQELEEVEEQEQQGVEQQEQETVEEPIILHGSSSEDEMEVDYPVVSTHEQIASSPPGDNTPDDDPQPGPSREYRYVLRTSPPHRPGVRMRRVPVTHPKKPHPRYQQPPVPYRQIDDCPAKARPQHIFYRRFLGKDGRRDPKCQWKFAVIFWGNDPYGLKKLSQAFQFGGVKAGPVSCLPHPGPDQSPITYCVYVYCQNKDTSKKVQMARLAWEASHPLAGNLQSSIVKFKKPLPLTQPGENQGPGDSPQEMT
Beta cell apopt = beta cell apoptosis inhibition; protection from apoptosis, % (no concentration beside the values); INS-1E cytokine-induced death, ATP luminescence, 48 h; percent of positive-control rescue, neutral wells zero; 300,000 tested, 0.8% active;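 active means all replicates at 75% or more, or half of them and the mean; inconclusive means half reach 75% but not the mean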;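 further: 0% = cytokine-treated negative control wells and 100% = positive control rescue; higher means more ATP so stronger rescue from cytokine killing; wells of about 40 µL received 100 nL stock; the first replicate is given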
Ecoli rRNA inh OD600 = recorded beside Ecoli rRNA inh, whose call it bears; OD600 change, %; measured here: OD600 growth;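 optical density of the mix in the first replicate; 0 = DMSO median and -100 = no signal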
Ecoli rRNA inh RFP = further read-out of Ecoli rRNA inh, marked with its call; RFP signal change, %; measured here: RFP humanized mutant strains;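 first replicate; 0 = DMSO median and -100 = no signal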
* = called active by the depositor; ? = inconclusive; . = not tested or not shown. An excerpt; rates above refer to the full screens.

1	Cn1c(SCc2cccc([N+](=O)[O-])c2)nc2ccccc2c1=O
2	Cc1cnc(CN(C)Cc2c(C(=O)N3CCCCCCC3)nc3ccc(Cl)cn23)[nH]1
3	CCN(CC)S(=O)(=O)c1ccc(-c2nnc(SCC(=O)N3CCOCC3)o2)cc1
4	CC(C)(C)SC(=O)CC1NS(=O)(=O)OC2CCCCC12 (configuration not stated)
5	CCc1nc(SCc2cc(Cl)ccc2OC)n[nH]1
assay / entry	1	2	3	4	5
Calb FLC	.	-2	-14	-9	-32
ALR H2O2 inh	.	-5	-1	8	-17
T cruzi repl	.	-5	-10	9	8
Beta2AR agonist	0	-6	-17	-8	-19
A1 inh	-1.2	-0.6	0.5	?	1.8
Ecoli rRNA inh	.	0	11	2	-5
Ecoli rRNA inh OD600	.	3	-2	10	-1
Ecoli rRNA inh RFP	.	-3.0	3.1	-0.4	4.6
LANA-H2B inh	7.2	-4.3	0.7	-2.4	-2.1
Beta cell apopt	24	-9	1	1	-6

6	CC(C)(C)c1ccc(C(=O)/C(C#N)=C/c2cccs2)cc1
7	Nc1ccc2c(c1)COc1ccccc1O2
8	CC1CCN(CCOc2ccc(Cl)c(Cl)c2)CC1
9	COc1c2c(cc3oc(=O)ccc13)OC(C)(C)C=C2
10	Cc1ccc(N(CC(=O)NCCSc2ccccn2)S(C)(=O)=O)cc1
assay / entry	6	7	8	9	10
Calb FLC	3	36	-6	0	-36
ALR H2O2 inh	19	99*	-8	-15	-11
T cruzi repl	5	12	-3	-9	16
Beta2AR agonist	8	5	6	-7	-2
A1 inh	0.0	0.8	0.4	1.4	0.0
Ecoli rRNA inh	-14	.	9	.	18
Ecoli rRNA inh OD600	22	.	1	.	7
Ecoli rRNA inh RFP	5.1	.	-5.4	.	2.7
LANA-H2B inh	0.2	0.2	0.4	0.5	-0.7
Beta cell apopt	-3	-2	3	12	-16

11	O=C1CC(Sc2nnc(-c3ccccc3O)o2)C(=O)N1c1ccccc1 (configuration not stated)
12	CCC1CCCCN1CCCNC(=O)C1CCN(Cc2nc(-c3ccc(Cl)cc3)oc2C)CC1 (configuration not stated)
13	Cc1cc(N)n(-c2ccc(S(=O)(=O)N3CCOCC3)cc2[N+](=O)[O-])n1
14	COc1ccc(NC(=O)c2cc(OC)c(OC)cc2OC)c(S(=O)(=O)N2CCOCC2)c1
15	O=C(NNC(=O)c1ccccc1F)c1cccc(S(=O)(=O)N2CCc3ccccc32)c1
assay / entry	11	12	13	14	15
Calb FLC	26	49	-5	.	.
ALR H2O2 inh	67	-1	-12	-18	13
T cruzi repl	11	42	4	4	.
Beta2AR agonist	-4	14	-9	3	-6
A1 inh	-0.2	1.6	2.0	0.5	-0.5
Ecoli rRNA inh	-14	.	6	.	-7
Ecoli rRNA inh OD600	-6	.	5	.	-22
Ecoli rRNA inh RFP	2.6	.	1.5	.	2.0
LANA-H2B inh	0.9	-0.6	-2.1	0.9	0.8
Beta cell apopt	-4	16	-7	-1	38

16	Cc1ccc(C(=O)Oc2ccc(C(=O)COC(=O)C3CC(=O)N(Cc4ccco4)C3)cc2)cc1 (configuration not stated)
17	O=C(CSC1=NS(=O)(=O)c2ccccc2N1)NCc1ccc(F)cc1
18	O=C(Nc1nc(-c2ccccc2)cs1)c1cccnc1
19	NS(=O)(=O)OCc1ccc(C(F)(F)F)cc1
20	O=C(NC(=S)NCC1CCCO1)c1ccccc1[N+](=O)[O-] (configuration not stated)
assay / entry	16	17	18	19	20
Calb FLC	2	5	1	7	-3
ALR H2O2 inh	.	-1	-7	6	0
T cruzi repl	-22	-6	-9	1	-12
Beta2AR agonist	1	-8	-4	9	1
A1 inh	-0.2	0.6	0.7	0.3	-0.3
Ecoli rRNA inh	.	4	.	15	9
Ecoli rRNA inh OD600	.	6	.	11	2
Ecoli rRNA inh RFP	.	-2.0	.	0.2	-1.4
LANA-H2B inh	2.7	3.8	2.9	-31	6.4
Beta cell apopt	-2	.	4	2	-3

21	Cc1cc(C)n(C2CC(=O)N(c3cccc(Cl)c3)C2=O)n1 (configuration not stated)
22	Cc1noc(C)c1S(=O)(=O)N(C)C[C@H]1Oc2ccc(NS(=O)(=O)c3ccccc3)cc2C(=O)N([C@H](C)CO)C[C@@H]1C
23	CCSC1=N/C(=C\c2cccc(F)c2)C(=O)S1
24	Cc1ccc2c(COC(=O)CNC(=O)c3ccccc3)cc(=O)oc2c1
25	O=C(O)c1ccc(CNS(=O)(=O)c2ccc(Oc3ccccc3Cl)cc2)cc1
assay / entry	21	22	23	24	25
Calb FLC	-13	.	-9	28	2
ALR H2O2 inh	-10	-2	5	-3	39
T cruzi repl	-2	.	-6	-2	-8
Beta2AR agonist	-2	1	3	-1	12
A1 inh	0.3	0.0	-0.7	0.3	0.7
Ecoli rRNA inh	17	-1	5	9	-31
Ecoli rRNA inh OD600	6	-5	12	21	-34
Ecoli rRNA inh RFP	-4.2	6.8	3.7	-1.9	-6.9
LANA-H2B inh	0.4	-7.3	1.9	-3.8	0.1
Beta cell apopt	-2	5	-11	-1	-1

26	Cc1[nH]c2ccc(F)cc2c1CCNC(=O)C1CCCCC1C(=O)OCC(F)(F)F (configuration not stated)
27	COC(=O)N/N=C/c1cc(C)n(-c2ccc(F)cc2)c1C
28	O=C(Nc1cc(-c2nc3ncccc3o2)ccc1Cl)c1ccc2c(c1)OCO2
29	O=C(NCCc1ccc(Cl)cc1)c1ccc(CS(=O)Cc2ccccc2Cl)o1 (configuration not stated)
30	O=C(CSCc1ccc([N+](=O)[O-])cc1)NN=C1CCCCCC1
assay / entry	26	27	28	29	30
Calb FLC	39	-8	.	11	-14
ALR H2O2 inh	7	6	-1	30	88*
T cruzi repl	16	5	.	11	-7
Beta2AR agonist	3	-8	1	0	-4
A1 inh	-0.4	0.8	-0.7	1.5	0.4
Ecoli rRNA inh	.	7	11	-30	15
Ecoli rRNA inh OD600	.	5	18	-52	-8
Ecoli rRNA inh RFP	.	0.6	0.9	5.5	-4.1
LANA-H2B inh	7.0	-1.8	.	-0.1	-1.8
Beta cell apopt	-5	-1	9	7	-4

31	CC(C)COP(=O)(OCC(C)C)C(O)c1ccc2c(c1)OCO2 (configuration not stated)
32	COc1ccccc1OCCOCCOc1ccccc1Cl
33	O=C(Nc1ccc(Cl)cn1)c1cccc(S(=O)(=O)N2CCOCC2)c1
34	CCc1ccc(CCC(=O)Nc2ccccc2C(=O)O)o1
35	CCN(C(=O)CSc1nnc(-c2ccc(OC(F)F)cc2)n1N)C1CCS(=O)(=O)C1 (configuration not stated)
assay / entry	31	32	33	34	35
Calb FLC	-1	2	2	47	3
ALR H2O2 inh	-3	-17	-4	?	-4
T cruzi repl	4	3	-1	15	-4
Beta2AR agonist	2	-3	-10	5	-3
A1 inh	-0.3	-0.7	1.0	-3.2	-0.1
Ecoli rRNA inh	-1	.	.	.	23
Ecoli rRNA inh OD600	13	.	.	.	12
Ecoli rRNA inh RFP	-0.3	.	.	.	-0.2
LANA-H2B inh	1.1	3.7	2.7	-5.8	-2.6
Beta cell apopt	-8	1	-2	-11	0

36	CC(Oc1ccc(Cl)cc1Cl)C(=O)NC1=NN(c2ccccc2)C(=O)C1 (configuration not stated)
37	CN(C)c1nc(C(=O)O)nc(N2CCOCC2)n1
38	O=C(Nc1cccnc1)/C(N=Nc1ccc(Cl)c(C(F)(F)F)c1)=C(\O)c1ccccc1
39	CCOc1cc(C(C(=O)NCC2CCCO2)N(C(=O)Cn2nnc3ccccc32)c2ccc(NC(C)=O)cc2)ccc1O (configuration not stated)
40	Cc1ccc2nc(C(F)OC(F)(F)F)[nH]c2c1 (configuration not stated)
assay / entry	36	37	38	39	40
Calb FLC	12	-3	-7	-7	-5
ALR H2O2 inh	56	2	-1	11	-5
T cruzi repl	2	7	-6	-2	-24
Beta2AR agonist	2	4	0	-1	13
A1 inh	0.2	1.7	0.1	0.2	-1.6
Ecoli rRNA inh	.	15	.	1	.
Ecoli rRNA inh OD600	.	12	.	6	.
Ecoli rRNA inh RFP	.	3.4	.	-0.2	.
LANA-H2B inh	-3.0	-1.0	-6.4	-2.0	-4.0
Beta cell apopt	-4	1	-2	0	1

41	CC(C)CC(NC(=O)C(CO)NC(=O)C1CCC(=O)N1)C(N)=O (configuration not stated)
42	Cc1oc2c(c(C)cc3oc(=O)c(CC(=O)N[C@@H](CC(C)C)C(=O)O)c(C)c32)c1C
43	COC(=O)CC1C(=O)NCCN1C(=S)Nc1ccccc1Cl (configuration not stated)
44	O=C(NCCNC(=O)c1cnccn1)c1ccc(Cl)c(Cl)c1
assay / entry	41	42	43	44
Calb FLC	-19	-6	-5	4
ALR H2O2 inh	3	30	-1	-13
T cruzi repl	-11	-14	0	-6
Beta2AR agonist	15	-3	2	24
A1 inh	0.8	-1.1	1.2	0.1
Ecoli rRNA inh	.	-37	20	1
Ecoli rRNA inh OD600	.	-74	4	2
Ecoli rRNA inh RFP	.	-3.8	-3.7	2.0
LANA-H2B inh	3.0	1.8	0.3	-2.3
Beta cell apopt	-3	-1	-9	3

Molecules listed so far that have two or more sulfur atoms:
3	CCN(CC)S(=O)(=O)c1ccc(-c2nnc(SCC(=O)N3CCOCC3)o2)cc1
4	CC(C)(C)SC(=O)CC1NS(=O)(=O)OC2CCCCC12 (configuration not stated)
10	Cc1ccc(N(CC(=O)NCCSc2ccccn2)S(C)(=O)=O)cc1
17	O=C(CSC1=NS(=O)(=O)c2ccccc2N1)NCc1ccc(F)cc1
22	Cc1noc(C)c1S(=O)(=O)N(C)C[C@H]1Oc2ccc(NS(=O)(=O)c3ccccc3)cc2C(=O)N([C@H](C)CO)C[C@@H]1C
23	CCSC1=N/C(=C\c2cccc(F)c2)C(=O)S1
35	CCN(C(=O)CSc1nnc(-c2ccc(OC(F)F)cc2)n1N)C1CCS(=O)(=O)C1 (configuration not stated)
assay / entry	3	4	10	17	22	23	35
Calb FLC	-14	-9	-36	5	.	-9	3
ALR H2O2 inh	-1	8	-11	-1	-2	5	-4
T cruzi repl	-10	9	16	-6	.	-6	-4
Beta2AR agonist	-17	-8	-2	-8	1	3	-3
A1 inh	0.5	?	0.0	0.6	0.0	-0.7	-0.1
Ecoli rRNA inh	11	2	18	4	-1	5	23
Ecoli rRNA inh OD600	-2	10	7	6	-5	12	12
Ecoli rRNA inh RFP	3.1	-0.4	2.7	-2.0	6.8	3.7	-0.2
LANA-H2B inh	0.7	-2.4	-0.7	3.8	-7.3	1.9	-2.6
Beta cell apopt	1	1	-16	.	5	-11	0
